PABP polyA inh – blocks human PABP binding to poly(A) RNA | fluorescence polarization | inhibition, % at 35 µM | 290,000 tested, 1% active | AID 2014;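 active = 50% or more with normal probe brightness, or confirmed in later tests; about a fifth of its hits are not listed in these tables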;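 note: calls also rest on retests at 20 µM and on dose response follow-up; controls were probe without protein and protein plus probe with vehicle; some compounds called inactive have numbers as strong as hits; many hits fall short of the cut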
HIV Env fusion – inhibitors of HIV Env-mediated cell fusion. 360,000 tested, 1.1% active. inhibition, % at 12.3 µM. HeLa-JRFL Env/CEM21 cell fusion, luciferase;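 active = mean replicate inhibition score of at least 50 and every replicate individually at or above 50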;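 note: 0% = plate neutral controls and 100% = maraviroc near 300 nM; one replicate is shown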
MT1-MMP act inh – MT1-MMP (human) activation inhibition. 360,000 tested, 0.061% active. HT1080 RFP-PRO-GFP cells, GFP/RFP ratio fluorescence, overnight; percent of plate control window, DMSO zero. AID 651647. GFP/RFP ratio change, % at 20 µM. P50281;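 active = GFP/RFP ratio change of at least 30% with cell ATP level not reduced by more than half and red fluorescence within 50% of control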; note: strong numbers were not always called active
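Assay system: HT1080 RFP-PRO-GFP cells | Dosing: 20 µM single dose, 1% DMSO | Incubation: Cells overnight before dosing, compound overnight, 37 °C, 5% CO2 | Evaluation: GFP/RFP fluorescence ratio | Control set: DMSO-only wells and HT1080 RFP-L50D-GFP cell wells as references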
Rce1 inhib – inhibitors of yeast Ras-converting enzyme; Q03530; yeast membranes, quenched prenylated peptide cleavage fluorescence; calls only; 290,000 tested, 0.27% active; AID 2563;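 active = fall in fluorescence gain of 50% or more versus controls, with final raw signal at or below 3038400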;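 note: plate controls were neutral control wells for no effect and wells lacking membranes for full effect; tested at 10 µM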
Target sequence (Q03530 whole entry, looked up): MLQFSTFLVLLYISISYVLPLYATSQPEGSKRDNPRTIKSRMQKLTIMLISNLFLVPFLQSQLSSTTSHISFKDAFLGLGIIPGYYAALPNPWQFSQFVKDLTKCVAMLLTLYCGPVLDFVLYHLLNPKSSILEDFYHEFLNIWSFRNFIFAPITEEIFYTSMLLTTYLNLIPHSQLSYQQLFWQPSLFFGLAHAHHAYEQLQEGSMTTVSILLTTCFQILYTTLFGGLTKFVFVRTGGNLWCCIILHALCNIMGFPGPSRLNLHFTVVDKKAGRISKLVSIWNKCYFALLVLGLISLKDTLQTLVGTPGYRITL
eIF4H inh – inhibitors of RNA binding by human eIF4H | Q15056 | 290,000 tested, 0.94% active | eIF4H fluorescence polarization binding assay | AID 2012 | inhibition, % at 35 µM;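 active = 50% or more with normal probe brightness, or confirmed in later tests; about a fifth of its hits are not listed in these tables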;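 note: calls also rest on retests at 20 µM and on dose response follow-up; 0% = protein and probe with vehicle and 100% = probe without protein; strong numbers were not always called active; many hits fall short of the cut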
CSC inhib – blocks cancer stem cells | cancer stem cell-like cells viability, luminescence | inhibition, % at 7.5 µM | 300,000 tested, 1.1% active | AID 2717;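 active = mean at 75% or more and at least half the replicates too; tested in HMLE shEcad cells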;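 note: 0% = median of negative and 100% = median of positive control wells; the first replicate is given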
UUG fidelity – alters start codon recognition fidelity in yeast | S. cerevisiae UUG-firefly luciferase reporter, luminescence/redox ratio | activity score, % at 18.7 µM | 350,000 tested, 0.13% active;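 active = replicate mean at a twofold rise or more, about +100% in these data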;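 note: firefly luciferase made from a UUG start codon reports start codon fidelity; reporter light over untreated wells divided by growth signal over untreated wells; some hits fall short of that in this replicate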
eIF4H inh retest – further read-out of eIF4H inh, marked with its call; inhibition, %; compound at 20 µM; confirmation average;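 mean of two retest wells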
PABP polyA inh retest – recorded beside PABP polyA inh, whose call it bears; inhibition, %; compound at 20 µM; confirmation repeats;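 mean of two retest wells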
MT1-MMP act inh RFP – recorded beside MT1-MMP act inh, whose call it bears; RFP signal change, %; measured here: RFP expression control read;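 0 = vehicle wells; hits needed this value within 50% of zero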
Active calls of the source: *; i = inactive; x = not tested or not shown; & = joins results of further samples.

SMILES | PABP polyA inh | HIV Env fusion | MT1-MMP act inh | MT1-MMP act inh RFP | Rce1 inhib | eIF4H inh | CSC inhib | UUG fidelity | others
COc1cccc(CN(C)C(=O)c2ccc3c(=O)n4c(nc3c2)CCC4)c1 | x | 16 | 1 | 2 | i | x | 29 | 2
CC(=O)N1CCN(c2ccc(NC(=O)c3ccc(Cl)c([N+](=O)[O-])c3)cc2)CC1 | -9 | -5 | -1 | 0 | i | -14 | 3 | 1
Cc1nn2c(=S)[nH]nc2[nH]c1=O | -9 | -7 | -1 | 0 | i | 6 | -6 | 3
COc1ccc(N2C(=O)C3CCCN3C2c2cc(OC)c(OC)cc2OC)cc1 (stereo unspecified) | -8 | -15 | 0 | 1 | i | 4 | -4 | -1
O=C(Oc1ccccc1)c1cc2ccccc2oc1=O | 50 | 9 | 6 | 4 | i | 1 | -3 | x
CCOC(=O)C1(CCOc2ccccc2)CCN(S(=O)(=O)N(C)C)CC1 | -7 | -10 | 4 | -4 | i | 3 | -2 | -6
CCN1CCN(C(=O)C2CCN(S(=O)(=O)c3ccc(SC)cc3)CC2)CC1 | 13 | -9 | 1 | -1 | i | 11 | 43 | -1
CC(C)Cn1c(SCC(=O)Nc2cccc(S(N)(=O)=O)c2)nc2ccccc2c1=O | 19 | 5 | 0 | 1 | i | 3 | -7 | x
Cc1cc(C)n(-c2nc3c(c(=O)[nH]c(=O)n3C)n2CC(O)COc2ccccc2)n1 (stereo unspecified) | -9 | x | -2 | 4 | i | 3 | -4 | 9
COc1cccc(C#Cc2ccc3c(c2)O[C@H](CN(C)C)[C@@H](C)CN([C@@H](C)CO)S3(=O)=O)c1 | x | 12 | 8 | 9 | x | x | x | 73&88
Cc1c(C(=O)N2CCC2)oc2ccc(Cl)cc12 | x | -37 | -2 | 1 | x | x | 15 | -4
Cc1ccc(C)c(-n2c(SCC(=O)O)nc3sc4c(c3c2=O)CCCC4)c1 | 12 | 17 | -1 | -2 | i | 1 | 10 | 7
O=C(CSc1nc(-c2ccccc2)c(-c2ccccc2)[nH]1)N1CCN(S(=O)(=O)c2ccccc2)CC1 | 3 | 84* | 2 | -13 | i | -5 | 0 | -9
O=CNCCCc1nc2ccccc2n1Cc1ccccc1 | 5 | -71 | 2 | 1 | i | -6 | -20 | -16
CC(C)c1nnc(NC(=O)CCC(=O)N2CCN(Cc3ccccc3)CC2)s1 | -2 | x | -3 | -3 | i | -5 | -3 | -13
CCc1ccc2[nH]c(=O)c(C(c3nnnn3CC3CCCO3)N3CCN4CCCC4C3)cc2c1 (stereo unspecified) | 4 | -13 | -8 | 1 | i | 10 | 5 | -10
O=C(CS(=O)c1ccccc1[N+](=O)[O-])Oc1ccc(Br)cc1 (stereo unspecified) | 1 | 2 | 3 | -1 | i | -1 | -16 | x
O=C(NCc1ccc2c(c1)OCO2)c1ccc(S(=O)(=O)N2CCCCC2)cc1 | 5 | -86 | -1 | -1 | i | -10 | -3 | 8
Cc1ccc(C(=O)C(OC(=O)CN2C(=O)c3ccccc3C2=O)c2ccccc2)cc1 (stereo unspecified) | -6 | 15 | 1 | 4 | i | -21 | -3 | -39
O=C(CSc1nc(NS(=O)(=O)c2ccccc2)cc(=O)[nH]1)Nc1cccc(C(F)(F)F)c1 | 16 | -19 | 3 | -2 | i | -2 | x | -12
CCOc1ccc(CCNC(=O)CN2C(=O)NC3(CCCCC3)C2=O)cc1OCC | x | x | 2 | 2 | i | x | -11 | -3
CCCC(=O)c1cc2c(cc1NC(=O)c1cccs1)OCCO2 | -4 | -79 | 2 | 4 | x | 2 | x | -17
O=C1CCC([N+](=O)[O-])C(c2ccccc2Br)N1 (stereo unspecified) | -14 | -21 | -4 | 0 | i | 8 | -11 | -5
O=C(CSc1nc2ccc([N+](=O)[O-])cc2s1)NC1CCS(=O)(=O)C1 (stereo unspecified) | 10 | 6 | -6 | -4 | i | -5 | 5 | x
CS(=O)(=O)c1ccccc1COC(=O)Nc1ccc(Cl)cc1 | -8 | x | 2 | -7 | x | -4 | -19 | x
Nc1nonc1-c1noc(CCCCCN2C(=O)c3ccccc3C2=O)n1 | 16 | -2 | 9 | 7 | x | 10 | -5 | -3
O=C(/C=C/c1ccccc1)Nc1ccc(S(=O)(=O)N2CCOCC2)cc1 | -7 | 7 | 3 | -3 | i | 43 | 7 | -16
O=C(COC(=O)c1ccc(Br)o1)Nc1ccc2c(c1)OCCO2 | x | -1 | -5 | -1 | x | x | -9 | -11
O=S(=O)(c1ccc(Cl)cc1)c1nc(-c2ccco2)oc1N1CCCCC1 | 8 | 1 | -2 | 4 | i | -1 | 14 | -14
Cn1c(C(=O)NN)cc2cc(OCc3ccccc3)ccc21 | x | -13 | 0 | 5 | i | x | -2 | -10
Cc1ccc(NC(=O)CCNC(=O)c2ccc(Br)cc2)cc1S(=O)(=O)N1CCOCC1 | x | 17 | 11 | -4 | i | x | -6 | -12
COC(=O)c1sc2ccccc2c1NC(=O)c1coc2ccccc2c1=O | 19 | x | -6 | -5 | i | 1 | 9 | x
CC(C)c1cccc(C(C)C)c1Nc1cn[nH]c1 | x | -6 | 3 | 1 | x | x | x | -18
COc1cccc(C(=O)Nc2ccc3c(c2)OC[C@H](C)N(CCc2ccccc2)C[C@@H](C)[C@@H](OC)CN(C)C3=O)c1 | x | -28 | 1 | -2 | x | x | x | 8
CC(=O)Nc1ccc(S(=O)(=O)NC2=NCN(C)CN2)cc1 | 0 | -10 | 2 | -1 | i | -2 | -18 | -22
CCOC(=O)CSc1nnc(CNC(=O)c2cccs2)n1-c1cc(C)ccc1C | -1 | -9 | 0 | 1 | x | 4 | 7 | -7

Part of the list above in order of count of non-hydrogen atoms, lowest first.
SMILES | PABP polyA inh | HIV Env fusion | MT1-MMP act inh | MT1-MMP act inh RFP | Rce1 inhib | eIF4H inh | CSC inhib | UUG fidelity | others
CC(=O)Nc1ccc(S(=O)(=O)NC2=NCN(C)CN2)cc1 | 0 | -10 | 2 | -1 | i | -2 | -18 | -22
O=S(=O)(c1ccc(Cl)cc1)c1nc(-c2ccco2)oc1N1CCCCC1 | 8 | 1 | -2 | 4 | i | -1 | 14 | -14
Nc1nonc1-c1noc(CCCCCN2C(=O)c3ccccc3C2=O)n1 | 16 | -2 | 9 | 7 | x | 10 | -5 | -3
CCOC(=O)CSc1nnc(CNC(=O)c2cccs2)n1-c1cc(C)ccc1C | -1 | -9 | 0 | 1 | x | 4 | 7 | -7

The results go on.
SMILES | PABP polyA inh | HIV Env fusion | MT1-MMP act inh | MT1-MMP act inh RFP | Rce1 inhib | eIF4H inh | CSC inhib | UUG fidelity | others
O=C(OCC(=O)N1CCc2ccccc21)c1ccccc1[N+](=O)[O-] | x | -89 | -1 | -1 | x | x | x | -76
COc1cc(/C=N/NC(N)=O)ccc1OCC(=O)Nc1cc(C)c(C)cc1Br | 4 | -5 | 1 | 3 | i | 0 | 7 | x
Cc1ccc(C(=O)NCC(=O)NCC(c2cccs2)N2CCOCC2)cc1 (stereo unspecified) | x | -20 | -2 | 3 | x | x | x | 28
C[C@@H]1C=CC(=O)O[C@@H]1c1ccc(C(F)(F)F)cc1 | -7 | x | x | x | i | -8 | 92* | x
COc1ccc(Cl)c2c1[nH]c1nc(SCc3ccccn3)nnc12 | -1 | -87 | 5 | -4 | i | -1 | x | x
COc1ccc(C(=O)CN2CC(C)SC2=Nc2ccc(Cl)cc2)cc1 (stereo unspecified) | 11 | -48 | -8 | -3 | i | -3 | -4 | -11
O=S(=O)(c1cccs1)N1CN(Cc2ccc(F)cc2)c2nc3ccccc3nc21 | 11 | x | -1 | -6 | x | 6 | -10 | x
COc1ccc(-c2nc3c([nH]2)c(=O)n(C)c(=O)n3C)c(OC)c1 | -4 | 14 | 3 | 0 | i | 1 | -13 | -14
COc1ccccc1N1C(=O)CCC1(C#N)c1ccc(Br)cc1 (stereo unspecified) | -1 | -28 | -5 | -1 | i | 10 | -10 | -11
Cc1ccc(C)c(S(=O)(=O)N2CCC3(CC2)OCCO3)c1 | -1 | -5 | -6 | -1 | i | -4 | -9 | 3
O=C(NCCO)c1cccc(-c2cnc3c(Nc4cccc(OC(F)(F)C(F)F)c4)nccn23)c1 | x | -1 | 8 | -12 | x | x | x | -22
CCCC(=O)N(Cc1cc2cc(OC)ccc2[nH]c1=O)c1ccc(OC)cc1 | x | -27 | 0 | 4 | x | x | x | -11
COc1ccc(CNC(=O)[C@H](C)NC(=O)C2CCN(C(=O)[C@@H](N)Cc3ccccc3)CC2)cc1 | -6 | x | -3 | -1 | i | -4 | 6 | 0
Cc1cccc(C(=O)OCC(=O)N(C)C(c2ccccc2)c2ccccc2)c1[N+](=O)[O-] | x | -7 | 2 | -2 | x | x | x | -9
COc1ccc(/C=C(\NC(=O)c2ccc([N+](=O)[O-])cc2)C(=O)N2CCOCC2)cc1 | -1 | 11 | 3 | 5 | i | -9 | 5 | x
Cc1nn(Cc2nnc(SCC(=O)Nc3ccc(Cl)cc3)n2C)c(C)c1[N+](=O)[O-] | 7 | 3 | 1 | 0 | i | 1 | 1 | -15
CCc1c(C(=O)Nc2ccncc2)csc1C | 2 | 51 | -12 | -13 | i | -11 | 15 | -13
CCOC(=O)N1CCC(NC(=O)c2ccc(NC(=O)C3CCCO3)cc2)CC1 (stereo unspecified) | -3 | -25 | 0 | 1 | i | 10 | 19 | -18
O=C(Nc1nnc(C2CC2)s1)C1Cc2ccccc2CN1C(=O)c1ccco1 (stereo unspecified) | 4 | -11 | -7 | 5 | x | 61 | -9 | x | eIF4H inh retest=23;PABP polyA inh retest=12
CCCCc1nnc(NC(=O)CSCc2cc(=O)n3c(C)csc3n2)s1 | x | -3 | 2 | 1 | i | x | -6 | 11
COc1ccc(S(=O)(=O)Nc2nncs2)cc1 | -1 | -24 | -7 | 1 | i | 2 | -11 | -10
O=C(NCc1ccccc1)C1C2C=CC3(CN(Cc4cccnc4)C(=O)C13)O2 (stereo unspecified) | 4 | -14 | 4 | 2 | i | 1 | -7 | x
O=C(O)C1CCC(=O)N1C(=O)OCc1ccccc1 (stereo unspecified) | 1 | 0 | 3 | 1 | i | 2 | -4 | -23
CCOC(=O)N1CCN(CC(=O)Nc2nccs2)CC1 | x | 15 | 2 | 0 | x | x | x | -8
COc1ccc(CCC(=O)NC(C)C2CCCO2)cc1 (stereo unspecified) | -2 | -17 | 1 | 5 | i | 4 | 0 | -19
OC[C@H]1O[C@@H](c2nc(-c3ccc(CN4CCOCC4)cc3)no2)[C@H](O)[C@@H](O)[C@H]1O | x | -18 | 1 | 4 | x | x | x | -15
COc1cccc(OC(=O)N2CCOCC2)c1 | 4 | 20 | -5 | 2 | i | 2 | 2 | x
Cc1ccc(S(=O)(=O)N2CCN(CC(=O)NC(C)c3ccccc3)CC2)cc1 (stereo unspecified) | x | -11 | 2 | -1 | x | x | x | -2
CCCCOCCCNC(=O)/C=C/c1ccccc1Cl | x | x | -6 | -13 | i | x | -3 | 0
COc1cccc(NC(=O)NNC(=O)CCc2ccc(O)c(O)c2)c1 | -18 | 7 | 1 | 2 | i | 3 | -2 | -11
CCc1ccccc1NC(=S)N(CCc1ccncc1)C(C)C | 2 | 2 | -1 | 3 | i | -6 | -1 | -17
CCOc1ccccc1OCCCCCc1c(C)n[nH]c1C | -2 | -51 | 1 | -14 | i | -2 | -15 | -7
O=C(CS(=O)(=O)c1ccccc1)Nc1nc(-c2ccccc2)cs1 | 1 | x | 0 | -7 | i | -5 | 0 | 5
COc1ccc(Cl)cc1NC(=O)C(C)Sc1n[nH]c(N)n1 (stereo unspecified) | -7 | x | -1 | 2 | i | -8 | -12 | -19
COC(=O)c1c(NC(=O)c2cccs2)sc2c1CCC(C)C2 (stereo unspecified) | -4 | x | -2 | -1 | i | -10 | 7 | -8
CCn1c(=O)c(C(=O)Nc2ncccc2O)c(O)c2ccccc21 | 7 | 2 | 1 | 6 | i | -8 | 1 | -13
